GIRK2 activ: activators of human GIRK2 potassium channels; AID 1259325, 2017; HEK293-GIRK2 thallium flux, Thallos fluorescence; 63,000 tested, 0.05% active; calls only for hits at 25 µM; G protein-activated inward rectifier potassium channel 2 (Homo sapiens), P48051;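 active means among the strongest 0.2% of first-round signals and kept after retests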;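 further: first round at about 10 µM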
Target sequence (P48051 whole entry, looked up): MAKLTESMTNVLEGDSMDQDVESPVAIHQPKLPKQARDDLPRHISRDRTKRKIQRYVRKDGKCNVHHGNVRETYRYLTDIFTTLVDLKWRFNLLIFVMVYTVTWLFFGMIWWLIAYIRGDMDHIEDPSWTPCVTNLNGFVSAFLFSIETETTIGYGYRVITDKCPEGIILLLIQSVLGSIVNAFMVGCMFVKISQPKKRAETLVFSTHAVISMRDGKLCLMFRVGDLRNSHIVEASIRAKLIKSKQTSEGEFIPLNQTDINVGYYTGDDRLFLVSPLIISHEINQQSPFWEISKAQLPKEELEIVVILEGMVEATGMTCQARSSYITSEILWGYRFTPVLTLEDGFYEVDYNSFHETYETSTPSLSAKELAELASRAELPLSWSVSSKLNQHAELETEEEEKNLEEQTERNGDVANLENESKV
Calls only; i = inactive. These rows are one share of the data. The share of hits here may be higher or lower than overall.

GIRK2 activ	structure
i	O=C(O)CCC/C=C\C[C@@H]1C(O)CC(O)[C@@H]1/C=C/C(O)CCc1ccccc1 (stereo partly specified)
i	Cc1ccc(CN2N=C(C(=O)N3CCOCC3)S(=O)(=O)c3ccc(Cl)cc32)cc1
i	C/C=C/C(=O)N(CC)c1ccccc1C
i	CCOC(=O)[C@H](CCc1ccccc1)N[C@@H](C)C(=O)N1Cc2ccccc2C[C@H]1C(=O)O
i	COc1cc2ncn(-c3cc(OCc4ccccc4C(F)(F)F)c(C(N)=O)s3)c2cc1OC
i	CSc1ccc(CNC(=O)CSc2cc(N3CCCCC3)ncn2)cc1
i	COc1ccc(C2CNC(=O)C2)cc1OC1CCCC1 (stereo unspecified)
i	COc1cn(C)c(C(=O)NCCC(c2ccccc2)c2ccccc2)cc1=O
i	CCN(CC)CCOC(=O)c1ccc(N)cc1
i	[3H]C([3H])([3H])N(C)CCCC1(c2ccc(F)cc2)OCc2cc(C#N)ccc21 (stereo unspecified)
i	COc1ccccc1C1(CNS(=O)(=O)c2ccc3c(c2)CCCC3)CCOCC1
i	CCCc1nc(C(C)(C)O)c(C(=O)O)n1Cc1ccc(-c2ccccc2-c2nn[nH]n2)cc1
i	COc1cc2ncnc(Nc3cccc(Cl)c3)c2cc1OC
i	O=C(COc1ccc2ccccc2c1)N1CC(c2nc(C3CC3)no2)C1
i	N#Cc1ccc(C(c2ccc(C#N)cc2)n2cncn2)cc1
i	O=C(O)CCC/C=C\C[C@@H]1[C@@H](/C=C/C(=O)CCc2ccccc2)[C@H](O)C[C@@H]1O
i	CC1Cc2ccccc2N1NC(=O)c1ccc(Cl)c(S(N)(=O)=O)c1 (stereo unspecified)
i	CCc1ccc(N2C(=O)C3N=NN(Cc4nc(-c5cccc(C(F)(F)F)c5)no4)C3C2=O)cc1 (stereo unspecified)
i	CC(=O)Nc1ccc(CC(=O)O)cc1
i	CN(C)CCCC1(c2ccc(F)cc2)OCc2cc(C#N)ccc21 (stereo unspecified)
i	CC12CCC(=O)C=C1CCC1C2CCC2(C)C1CCC2(O)C(=O)CO (stereo unspecified)
i	O=C1NCCc2ccc(NC(=O)C3(c4ccc(F)cc4)CC3)cc21
i	CCn1c(-c2nonc2N)nc2cncc(C(=O)N3CC[C@H](N)C3)c21
i	Oc1ccc(C2CNCCc3c2cc(O)c(O)c3Cl)cc1 (stereo unspecified)
i	CNCCCN1c2ccccc2CCc2ccccc21
i	O=C(c1ccc(-n2cccn2)nn1)N1CCN(C(=O)c2ccco2)CC1
i	COc1cc2c(cc1OC)-c1[nH]nc(Nc3cccc(F)c3)c1C2
i	Cn1c(=O)c(Oc2ccc(F)cc2F)cc2cnc(NC3CCOCC3)nc21
i	CC(C)(C)c1ccc(NC(=O)N2CCN(CCNC(=O)c3cccs3)CC2)cc1
i	CC12CC3CC(C)(C1)CC(N)(C3)C2
i	C#Cc1cccc(Nc2ncnc3cc(OC)c(OCCCCCCC(=O)NO)cc23)c1
i	CCc1ccc(CCOc2ccc(CC3SC(=O)NC3=O)cc2)nc1 (stereo unspecified)
i	CCCCCCCC/C=C/CCCCCCCC(=O)O
i	O=C(O)c1cccnc1Nc1cccc(C(F)(F)F)c1
i	NC1CCN(c2nc3c(cc2F)c(=O)c(C(=O)O)cn3-c2ccc(F)cc2F)C1 (stereo unspecified)
i	CCc1cccc(CC)c1NC(=O)N1Cc2[nH]nc(NC(=O)c3ccc(N4CCN(C)CC4)cc3)c2C1
i	CC(=O)CCCCn1c(=O)c2c(ncn2C)n(C)c1=O

17 neighbouring records already listed, for reference:
GIRK2 activ	structure
i	CC12CCC(=O)C=C1CCC1C2CCC2(C)C1CCC2(O)C(=O)CO (stereo unspecified)
i	O=C1NCCc2ccc(NC(=O)C3(c4ccc(F)cc4)CC3)cc21
i	CCn1c(-c2nonc2N)nc2cncc(C(=O)N3CC[C@H](N)C3)c21
i	Oc1ccc(C2CNCCc3c2cc(O)c(O)c3Cl)cc1 (stereo unspecified)
i	CNCCCN1c2ccccc2CCc2ccccc21
i	O=C(c1ccc(-n2cccn2)nn1)N1CCN(C(=O)c2ccco2)CC1
i	COc1cc2c(cc1OC)-c1[nH]nc(Nc3cccc(F)c3)c1C2
i	Cn1c(=O)c(Oc2ccc(F)cc2F)cc2cnc(NC3CCOCC3)nc21
i	CC(C)(C)c1ccc(NC(=O)N2CCN(CCNC(=O)c3cccs3)CC2)cc1
i	CC12CC3CC(C)(C1)CC(N)(C3)C2
i	C#Cc1cccc(Nc2ncnc3cc(OC)c(OCCCCCCC(=O)NO)cc23)c1
i	CCc1ccc(CCOc2ccc(CC3SC(=O)NC3=O)cc2)nc1 (stereo unspecified)
i	CCCCCCCC/C=C/CCCCCCCC(=O)O
i	O=C(O)c1cccnc1Nc1cccc(C(F)(F)F)c1
i	NC1CCN(c2nc3c(cc2F)c(=O)c(C(=O)O)cn3-c2ccc(F)cc2F)C1 (stereo unspecified)
i	CCc1cccc(CC)c1NC(=O)N1Cc2[nH]nc(NC(=O)c3ccc(N4CCN(C)CC4)cc3)c2C1
i	CC(=O)CCCCn1c(=O)c2c(ncn2C)n(C)c1=O

High-throughput results deposited in PubChem by Vanderbilt University.
